GIV Gai3 FP = inhibitors of GIV peptide binding to Galpha-i3, primary screen, biochemical, fluorescence polarization, FITC-GIV GBA peptide, rat Galphai3; Guanine nucleotide-binding protein G(i) subunit alpha-3 (Rattus norvegicus), P08753; 90 min; stronger effect = lower value; scaled: aluminum fluoride 0%, vehicle 100%; percent of control (FP), % (test concentration not listed); hit rate 0.42% among 210,000; AID 1224905, 2016;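 active means replicate mean at 85% of control or lower, very high polarization wells dropped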;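 further: wells of about 15 µL received 100 nL stock; the first replicate is given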
Target sequence (P08753 whole entry, looked up): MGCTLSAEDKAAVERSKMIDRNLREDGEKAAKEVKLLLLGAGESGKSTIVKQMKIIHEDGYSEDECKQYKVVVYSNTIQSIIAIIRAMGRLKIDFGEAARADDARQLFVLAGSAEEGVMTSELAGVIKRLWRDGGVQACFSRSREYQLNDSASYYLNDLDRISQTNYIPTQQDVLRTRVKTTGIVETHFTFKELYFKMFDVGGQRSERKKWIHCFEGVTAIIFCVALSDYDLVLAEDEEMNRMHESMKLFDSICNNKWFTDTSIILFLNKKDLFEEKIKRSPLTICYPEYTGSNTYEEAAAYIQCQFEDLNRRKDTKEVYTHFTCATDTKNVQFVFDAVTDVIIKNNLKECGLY
Sa growth 42C = S. aureus growth inhibition at 42 and 30 °C, primary screen, LtaS inhibitor project, RN4220, two temperatures; OD600, 20 h, 42 °C; stronger effect = lower value; relative growth, % (test concentration not listed); hit rate 0.53% among 170,000; AID 720641, 2013;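 active means growth at 42 °C up to 50% and 20 or more points under that at 30 °C, or under 10% at both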;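 further: 300 nL library stock went into each well; scaled to the means of positive and negative controls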
HCMV NEC inh = inhibitors of HCMV UL50-UL53 interaction, biochemical, HTRF; HCMV UL50-UL53 nuclear egress complex (human cytomegalovirus); normalized percent inhibition; inhibition, % (test concentration not listed); hit rate 0.15% among 190,000; AID 1918969, 2023;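 active means both replicates at 50% or more, plus weaker picks with an unusually low signal ratio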;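 further: stock transfer was 100 nL into about 20 µL; 0% = negative control wells and 100% = wells with untagged competitor protein; inactives centre near -12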
Sa growth 42C second temp = further read-out of Sa growth 42C, marked with its call; relative growth, %; measured here: growth at 30 °C;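 optical density after 20 h as mean of two plates; 100% = untreated growth and lower means inhibition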
* marks the source's active call; other numbers are inactive results; · = not tested or not shown; & = joins results of further samples.

SMILES	GIV Gai3 FP	Sa growth 42C	Sa growth 42C second temp	HCMV NEC inh
CC(=O)c1ccc(Nc2nc3ccccc3nc2-n2nc(C)cc2C)cc1	108	106	92	-2
CCOCCCNC(=O)c1cc2c(Cl)ccc3c2n1CC(CC)O3 (stereo not drawn)	100	·	·	-11
COc1cc(C2C(C(=O)OCCOc3ccccc3)=C(C)NC3=C2C(=O)CC(C)(C)C3)cc(OC)c1OC (stereo not drawn)	104	·	·	-14
O=C(O)c1ccccc1C(=O)Nc1cccc2ncccc12	·	95	86	-24
COc1ccc(-c2nc(-c3ccc4c(c3)nc(C)c(=O)n4C)no2)c(OC)c1	108	·	·	-23
CCc1ccc(S(=O)(=O)c2nnn3c2nc(Nc2ccc(C)c(Cl)c2)c2sccc23)cc1	102	107	85	·
CCCc1nc2c(o1)NC(N)=C(C#N)C2c1cnn(-c2ccccc2)c1C (stereo not drawn)	·	32	7	-3
Cc1ccc(NC(=O)CN2C(=O)CC(C)Sc3ccccc32)c(C)c1 (stereo not drawn)	103	110	89	-32
Cc1c(CC(N)=O)c(=O)oc2cc(O)c(Cl)cc12	109	106	98	-57
Cc1cc(Cl)cc(Br)c1OCC(O)CNCc1ccccc1 (stereo not drawn)	105	108	83	·
CCOC(=O)c1c(NC(=O)COc2ccccc2)sc(C(=O)Nc2cc(C(F)(F)F)ccc2Cl)c1C	100	·	·	-4
Cc1c(-c2ccn[nH]2)cnn1-c1c(Cl)cc(Cl)cc1Cl	113	92	87	3
CC(=O)NC12CC3CC(C1)CC(C(=O)OCC(=O)c1ccc4c(c1)OCCO4)(C3)C2	·	63	94	-14
CC1=C(C(=O)Nc2ccccc2)C(c2ccccc2)n2c(s/c(=C/c3ccc(C)o3)c2=O)=N1 (stereo not drawn)	94	87	82	-28
Cc1occc1C(=O)Nc1cccc(/C=C/C(=O)O)c1	101	108	104	-16
CCOC(=O)N1CCC2(CC1)N=C(c1ccccc1O)CC(c1cc(Cl)ccc1O)N2 (stereo not drawn)	102	·	·	-36
CCN(CC)C(=O)c1ccc2c(c1)N(CC(=O)NC(C)(C)C)C(=O)CO2	98	·	·	-6
CCOC(=O)c1cc(OCC(=O)NC2CCCCC2)c2cc(Cl)ccc2n1	99	·	·	-32
CCN(CC)c1ccc(NC(=O)Cn2c(C)c3cnn(-c4ccccc4)c(=O)c3c2C)c(C)c1	105	106	85	-18
CCCNC(=O)C1CCCN(c2nc(C)nc3onc(CC)c23)C1 (stereo not drawn)	98	·	·	0
CCC(C)NC(=O)c1ccc2nc(-c3cccs3)c(-c3cccs3)nc2c1 (stereo not drawn)	98	98	75	·
Cc1cccn2c(=O)c3cc(C(=O)N(Cc4ccccc4)C(C)C)sc3nc12	96	103	91	-11
O=C(CCSc1nc2ccccc2s1)Nc1ccccc1Br	103	·	·	-13
S=c1nc[nH]c2c1nnn2Cc1ccc(Cl)cc1	104	108	94	-4
CN1CCN(CC(=O)Nc2ccc(C(=O)NCC3CCCO3)cc2)CC1 (stereo not drawn)	107	108	102	24
COc1cc2c(cc1NC(=O)C(C)OC(=O)c1n[nH]c(=O)c3ccccc13)oc1ccccc12 (stereo not drawn)	·	104	92	-17
Cc1cc(Cl)cc2sc(NC(=O)CCCCl)nc12	·	100	102	10
CCn1cnc2cc(NCc3cccc(OC)c3)ccc21	102	83	76	-34
Cc1cc(F)ccc1NC(=O)C1CCN(C(=O)c2cnn(-c3ccccc3)c2-n2cccc2)CC1	106	106	84	-13
CN(C)c1ccc(C=NCC2CCCN3CCCCC23)cc1 (stereo not drawn)	·	118	60	0
O=c1c2c(nc3nc(CNc4ccc(Cl)cc4)[nH]n13)CCC2	108	·	·	4
CCOc1ccc(NC(=O)C2CCCN(S(=O)(=O)c3ccc4[nH]c(=O)ccc4c3)C2)cc1 (stereo not drawn)	103	124	90	·
COc1cc(OC)c2c(C)c(CC(=O)NCc3ccccc3OC)c(=O)oc2c1	95	110	90	-16
CC1CCN(C(=O)CSc2ncnc3c2nnn3Cc2ccc(F)cc2)CC1	103	99	90	-27
COC(=O)c1ccc(COC(=O)c2ccc(O)cc2)o1	·	97	86	-10
CCC(=O)N1CCN(c2ccc(NC(=S)NC(=O)c3cc4ccccc4o3)cc2Cl)CC1	97	109	98	-2
COc1cccc(NC(=O)CCN2CCN(c3ccccc3)CC2)c1	105	115	91	-16
Brc1ccc2nc(SCCOc3ccccc3)[nH]c2c1	104	87	74	-15
Cc1[nH]c(C)c(S(=O)(=O)N2CCN(c3ncccn3)CC2)c1C(=O)N1CCCC1	105	·	·	-21
NCC(c1ccc(F)cc1)N1CCOCC1 (stereo not drawn)	100	91	82	-4

Profiles, looked up by structure. Order of values: GIV Gai3 FP | Sa growth 42C | Sa growth 42C second temp | HCMV NEC inh
`COc1cc2c(cc1NC(=O)C(C)OC(=O)c1n[nH]c(=O)c3ccccc13)oc1ccccc12` (stereo not drawn) as listed: · | 104 | 92 | -17
`CCC(=O)N1CCN(c2ccc(NC(=S)NC(=O)c3cc4ccccc4o3)cc2Cl)CC1` as listed: 97 | 109 | 98 | -2

In the list so far, these contain a thiophene ring, fused or not.
SMILES	GIV Gai3 FP	Sa growth 42C	Sa growth 42C second temp	HCMV NEC inh
CCc1ccc(S(=O)(=O)c2nnn3c2nc(Nc2ccc(C)c(Cl)c2)c2sccc23)cc1	102	107	85	·
CCOC(=O)c1c(NC(=O)COc2ccccc2)sc(C(=O)Nc2cc(C(F)(F)F)ccc2Cl)c1C	100	·	·	-4
CCC(C)NC(=O)c1ccc2nc(-c3cccs3)c(-c3cccs3)nc2c1 (stereo not drawn)	98	98	75	·
Cc1cccn2c(=O)c3cc(C(=O)N(Cc4ccccc4)C(C)C)sc3nc12	96	103	91	-11

(more compounds)
SMILES	GIV Gai3 FP	Sa growth 42C	Sa growth 42C second temp	HCMV NEC inh
N#Cc1c2c(c(NCCN3CCOCC3)n3c1nc1ccccc13)CCCC2	102	88	74	-41
COC(=O)c1ccc(COC(=O)c2ccccc2OC)cc1	101	110	92	-10
O=C(Cn1cc(S(=O)(=O)Cc2ccccc2F)c2ccccc21)NCC1CCCO1 (stereo not drawn)	111	·	·	-7
Cc1noc(C)c1CCNC(=O)C1CCCN(c2nc3cccnc3s2)C1 (stereo not drawn)	102	·	·	-24
CO[C@H]1C[C@@H]2CC[C@@H](C)[C@@](O)(O2)C(=O)C(=O)N2CCCC[C@H]2C(=O)O[C@H]([C@H](C)C[C@@H]2CC[C@@H](O)[C@H](OC)C2)CC(=O)[C@H](C)/C=C(\C)[C@@H](O)[C@@H](OC)C(=O)[C@H](C)C[C@H](C)/C=C/C=C/C=C/1C	103	94	79	-26&-14
CCCCc1nnc2sc(COc3ccc(Br)cc3)nn12	104	·	·	-4
CC1(C)CC(=O)C(=Cc2ccc3c(c2)OCCO3)C(=O)C1	·	112	90	-12
CCOC(=O)C1=C(C)N=c2s/c(=C\c3ccc(-c4ccc(C(=O)O)cc4)o3)c(=O)n2C1c1ccc2c(c1)OCO2 (stereo not drawn)	106	·	·	-4
CCC(C(=O)N1CCN(c2ccc(Cl)cc2)CC1)N1C(=O)CCCc2ccccc21 (stereo not drawn)	108	·	·	-13
Cc1ccc(Cn2nnc3c(=O)[nH]c(C4CCN(S(=O)(=O)c5ccc(S(=O)(=O)NC6CC6)cc5)CC4)nc32)cc1	107	92	87	12
CCn1nc(C)c(Oc2ccccc2O)c1C	107	109	113	3
Cc1ccsc1C=Nc1ccc(OC(F)(F)F)cc1	·	96	90	-41
CCOC(=O)c1ccc2nc(C(F)(F)F)cc(N3CC(C)CC(C)C3)c2c1 (stereo not drawn)	107	91	72	-32
O=S(=O)(Nc1cccc(-c2nnco2)c1)c1ccc(Cl)cc1	94	112	93	-9
Cc1ccc(C)c(NC(=O)CN(C)C(=O)C2=NNC(=O)CC2)c1	·	59	85	-12
COCCCNC(=O)c1cc(-c2cccnc2)nc2ccc(S(=O)(=O)N3CCC(C)CC3)cc12	107	119	101	·
CS(=O)(=O)N(CC(=O)N1CCN(c2ccccc2)CC1)c1ccc(Br)cc1	102	·	·	-7
Cc1ccc2[nH]c(=O)c(CN(CC3CCCO3)C(=S)NCCCN3CCOCC3)cc2c1 (stereo not drawn)	105	92	71	5
COC(=O)CSCc1csc(-c2ccc(OC)c(OC)c2)n1	·	93	90	-42
Cc1ccccc1C(=O)Nc1nnc(S(=O)(=O)N2c3ccccc3CC2C)s1 (stereo not drawn)	104	92	59	-5
Cc1c(C(=O)NCc2ccc(Cl)cc2)sc2nc3n(c(=O)c12)CCC3	103	103	109	8
Cc1n[nH]c(=S)n1CC(=O)n1c2c(c3ccccc31)CCCC2	100	107	86	-3
O=c1cc(CSc2nnc3sc4ccccc4n23)c2ccc(Br)cc2o1	·	105	94	-17
Cc1ccc(S(=O)(=O)c2nnn3c2nc(NC(C)C)c2cc(Cl)ccc23)cc1C	102	98	84	-34
CC(=O)Nc1ccc(S(=O)(=O)NCCn2c(-c3ccc(C)cc3)nc3ccccc32)cc1	106	·	·	4
COc1ccc(NC(=O)Cn2nnc(-c3ccc(S(C)(=O)=O)cc3)n2)cc1	103	86	87	-27
CCCS(=O)(=O)c1ncc(Cl)c(C(=O)Nc2sc3c(c2C(=O)NC)CCCC3)n1	103	·	·	-24
O=C(c1ccc(S(=O)(=O)NC2CCCc3ccccc32)s1)N1CCCC1 (stereo not drawn)	109	100	91	-10
CCOc1ccc(CNC(=O)c2[nH]c3ccc(OC)cc3c2N2CCCC2=O)cc1	104	·	·	-26
O=C(/C=C/c1ccccc1)N1CCN(Cc2cc(=O)n3nc(-c4ccccc4Cl)sc3n2)CC1	103	97	84	·
CCOc1ccccc1NC(=O)C(Cc1ccccc1)NS(=O)(=O)c1ccc(Br)s1 (stereo not drawn)	107	110	100	5
COc1ccc(-c2[nH]ncc2CN2CCN(C)CC2)cc1	104	86	85	-28
S=C(SCc1cn2cccnc2n1)N1CCCC1	102	87	84	-31
CCSC1=C(C#N)C(C)(C)C(C#N)C(=O)N1 (stereo not drawn)	·	102	98	7
CS(=O)(=O)N1CCc2cc(C(=O)Nc3cccc(F)c3)ccc21	105	104	92	-11
N=C(N)N1CCN(CC(O)COc2ccccc2)CC1 (stereo not drawn)	100	122	93	-2
Cc1ccc(-c2cc(C(=O)N3CCN(S(=O)(=O)c4ccc(Br)s4)CC3)[nH]n2)c(C)c1	99	90	92	·
Cc1ccc(N2CC(NC(=O)N3CCC(C(N)=O)CC3)CC2=O)cc1 (stereo not drawn)	97	82	77	-31
CC(C)OCCCNC(=O)CCCN1C(=O)CCn2nc(-c3cccn3C)cc21	111	103	91	·
Cc1cc(COC(=O)c2cc(S(=O)(=O)NC3CC3)ccc2Br)no1	·	85	89	-13

3 entries out of the list above, ordered by the number in GIV Gai3 FP, falling.
molecule | GIV Gai3 FP
Cc1c(C(=O)NCc2ccc(Cl)cc2)sc2nc3n(c(=O)c12)CCC3 | 103
Cc1ccc(S(=O)(=O)c2nnn3c2nc(NC(C)C)c2cc(Cl)ccc23)cc1C | 102
Cc1ccc(N2CC(NC(=O)N3CCC(C(N)=O)CC3)CC2=O)cc1 (stereo not drawn) | 97

Other results follow:
SMILES	GIV Gai3 FP	Sa growth 42C	Sa growth 42C second temp	HCMV NEC inh
CCOC(=O)N1CCN(C(=O)CCc2ccc(S(=O)(=O)NC3CCCCC3)cc2)CC1	106	110	94	-7
CC1=C(C(=O)Nc2ccccc2)C(c2ccncc2)C(C#N)=C(S)N1 (stereo not drawn)	·	74	71	-18
COc1ccc(F)cc1-c1cc(N2CCN(S(=O)(=O)c3cc(Cl)ccc3OC)CC2)ncn1	103	·	·	-28
O=C(Cn1cncn1)N/N=C/c1ccc(O)cc1O	·	85	66	-58
O=C(Nc1ccc(I)cc1)c1ccccc1C(=O)c1ccccc1	·	131	92	-7
Cc1nc(CCNC(=O)Cc2ccccc2)cs1	105	121	90	·
Cc1cc(-c2ccco2)n(-c2ccccc2)n1	·	99	80	-3
O=C(NCc1ccco1)c1c2c(nc3ccccc13)-c1ccccc1CC2	100	114	105	-34
Cc1nn(-c2ccccc2)c(N2CCCC2)c1C=Nc1ccc2c(c1)OCO2	·	124	86	-10
COc1ccccc1CNC(=O)CS(=O)(=O)Cc1nc(-c2ccccc2C)oc1C	99	98	90	-11
O=C(Cc1c(O)c2ccccc2[nH]c1=O)Nc1ccc(F)cc1	·	91	97	5
O=c1[nH]c(NCCO)c(I)c(=O)[nH]1	57*	102	92	67*
Cc1cc(C)cc(OCC(=O)Nc2ccc(-c3nc4ccccc4s3)cc2)c1	107	112	94	-7
COc1ccc(-c2oc(NC(=O)COC(=O)C(C)(C)C)c(C#N)c2-c2ccc(OC)cc2)cc1	·	97	77	-13
CC(C)(C)OC(=O)N1Cc2[nH]cnc2CC1C(=O)O (stereo not drawn)	107	111	96	5
COc1nc(N(C)C)nc(N(C#N)S(=O)(=O)c2ccc(C)cc2)n1	108	105	100	2
COc1ccc(-c2oc3ccc(OC)cc3c2C(=O)Nc2ccc(Cl)cc2)cc1	107	·	·	-14
CCC(C)SCC(=O)N1CCc2ccccc21 (stereo not drawn)	·	102	88	7
Cc1ccccc1NC(=O)c1cnc2sc(N3CCCC3)nn2c1=O	107	81	88	·
C/C(=N\NC(=O)c1nc(Cl)c(Cl)c(N)c1Cl)c1cc(O)ccc1O	·	97	88	-5

Bioassay records: PubChem BioAssay, ICCB-Longwood Screening Facility, Harvard Medical School
